PINK1 expr mod – PINK1 expression modulation; 410,000 tested, 0.2% active; Potency, µM (titrated, usually from 76.6 µM), without a hit: at the highest dose activation (PINK1 increase), most hits filed as activators; AID 624263; PINK1 immunofluorescence, high-content cytometry, 24 h; active = well fitted activation curve with a large enough effect; inconclusive = small, poorly fitted or top-dose-only effect; inactive = flat fitted curve, though single readings scatter; cell line not stated here;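 further: potency means the concentration at half of the fitted maximal effect; % of control where 0% means no effect; nearly all actives have a fitted effect of over 65% in size; a mitochondrial uncoupler was the plate control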
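Stable cell line, 250 cells/well, 12 h attachment; compounds pinned at 5 concentrations, 24 h; CCCP control. Fixed with nuclear dye, primary antibodies 12 h at 10 degrees C, secondary plus cell stain; laser-scanning cytometer read.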
TRPML1 agonist – activates the human TRPML1 channel; TRPML1-expressing cells, Ca2+ dye fluorescence, FDSS; host cell line not named in the record; reference of the full effect not given here; activation, % (concentration not given with the values); 410,000 tested, 0.12% active; in the data active = activation above about 50%; inconclusive = about 30% to 50%; inactive = below about 30%; further: 0% is about no effect; the text of the record puts the active cut at 80%
Target sequence (Q9GZU1 whole entry, looked up): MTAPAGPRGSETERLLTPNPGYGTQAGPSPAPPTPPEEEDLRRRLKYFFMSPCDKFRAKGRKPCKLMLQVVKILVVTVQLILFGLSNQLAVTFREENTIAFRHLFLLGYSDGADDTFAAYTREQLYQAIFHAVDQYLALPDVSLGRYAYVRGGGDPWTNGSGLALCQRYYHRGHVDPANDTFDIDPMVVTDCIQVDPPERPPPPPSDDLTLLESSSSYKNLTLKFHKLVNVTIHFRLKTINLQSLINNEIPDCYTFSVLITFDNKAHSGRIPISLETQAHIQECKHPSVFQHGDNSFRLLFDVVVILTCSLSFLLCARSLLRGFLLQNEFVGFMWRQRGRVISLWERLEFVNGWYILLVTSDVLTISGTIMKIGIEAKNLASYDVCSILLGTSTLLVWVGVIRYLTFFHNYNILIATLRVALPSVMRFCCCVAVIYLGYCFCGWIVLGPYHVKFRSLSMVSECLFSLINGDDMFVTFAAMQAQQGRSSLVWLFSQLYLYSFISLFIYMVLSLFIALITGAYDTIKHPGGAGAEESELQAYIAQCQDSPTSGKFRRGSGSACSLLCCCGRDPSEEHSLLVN
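Tet-induced TRPML1-DL cells, 1,500 per well, cultured overnight, were loaded with a no-wash Ca2+ dye for 45–90 min. Calcium fluorescence was recorded on the FDSS for 110 s after compound addition, before the EC80 agonist (4 uM 54-4) was added.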
Six1-Eya2 blk – blocks human Six1 binding to Eya2; Q15475+O00167; AlphaScreen GST-Six1/His-Eya2 binding, biochemical; stronger effect = lower value; control for the full effect not named in the record; activity change, % (concentration not given with the values); 360,000 tested, 0.56% active; AID 651725; in the data active = activity change below about -65%; inconclusive = about -30% to -65%; inactive = above about -30%; further: on the % scale 0 is the no-effect control and ±100 the full control effect
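GST-Six1 + His-Eya2 (5X stock: 250/500 nM); Tris pH 8.0, 300 mM NaCl, 0.05% BSA, 0.02% Tween 20; GSH donor/Ni acceptor beads; 1 h 37 °C dark; AlphaScreen readout.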
D2 ag – human D2 receptor agonism in beta-arrestin assay. P14416. AID 624465. activation, % (no concentration beside the values). DiscoveRx PathHunter D2 beta-arrestin, luminescence, 90 min; 100% = 57 uM dopamine signal. 360,000 tested, 0.084% active; in the data active = activation above about 40%; inconclusive = about 15% to 40%; inactive = below about 15%; further: compound concentration not given in the record; the text of the record calls up to 30% inactive
Target sequence (P14416 whole entry, looked up): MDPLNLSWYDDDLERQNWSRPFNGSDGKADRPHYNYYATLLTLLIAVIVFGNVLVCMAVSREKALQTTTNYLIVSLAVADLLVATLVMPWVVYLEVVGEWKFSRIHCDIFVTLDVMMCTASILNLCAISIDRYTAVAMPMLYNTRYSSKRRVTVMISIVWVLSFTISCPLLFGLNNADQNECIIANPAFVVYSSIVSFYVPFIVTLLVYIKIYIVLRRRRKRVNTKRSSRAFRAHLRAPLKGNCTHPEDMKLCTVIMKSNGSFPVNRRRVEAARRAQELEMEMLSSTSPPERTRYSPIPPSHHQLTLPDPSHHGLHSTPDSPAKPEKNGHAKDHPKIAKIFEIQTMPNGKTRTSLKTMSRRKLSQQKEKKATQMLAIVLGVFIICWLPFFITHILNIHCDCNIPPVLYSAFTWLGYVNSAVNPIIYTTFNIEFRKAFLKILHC
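DiscoveRx PathHunter D2 beta-arrestin cells (2,100/well) attached overnight, then compound-stimulated 90 min at 37 C in HBSS/10 mM HEPES/0.1% Tween-20 buffer; beta-galactosidase complementation read by luminescence after 1 h at ambient temperature. Dopamine 57 uM final (EC100) as control.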
TRPML1 blocker – blocks the human TRPML1 channel; AID 624415; Q9GZU1; TRPML1-inducible cells, Ca2+ dye fluorescence, FDSS; stronger effect = lower value; inhibition of EC80 agonist-evoked calcium signal; activity change, negative = inhibition, % (no concentration beside the values); 390,000 tested, 0.02% active; in the data active means activity change below about -50%; inconclusive means about -30% to -50%; inactive means above about -30%;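 further: stimulus is agonist 54-4 at its EC80 concentration; on the % scale 0 is the no-effect control and ±100 the full control effect; compound concentration not given in the record; the text of the record puts the active cut at -80%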
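Calcium fluorescence in TRPML1-DL cells induced overnight with Tet: a 110 s read after compound pin addition, then a 110 s antagonist read after challenge with 54-4 at 4 uM final (EC80).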
D2 PAM – potentiates the human D2 dopamine receptor allosterically; P14416; DiscoveRx D2 beta-arrestin cells, luminescence, 90 min; 100% = 57 uM dopamine signal; potentiation, % (test concentration not listed); 360,000 tested, 0.23% active; AID 624464; active = potentiation of 50% or more; inconclusive = 30% to 50%; inactive = 30% or less;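 further: compound concentration not given in the record; tested on top of an EC20 dose of dopamine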
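PathHunter D2 cells, attached overnight at 37 deg C, received compound in DMSO plus dopamine at EC20 (50 nM final) for 90 min at 37 deg C. Beta-arrestin recruitment was read as luminescence after 1 h with detection reagent at ambient temperature.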
Starred values were filed as active, the others as inactive; ? = inconclusive; · = not tested or not shown; [ ] = another dose, or the depositor's remark.

mol	PINK1 expr mod	TRPML1 agonist	Six1-Eya2 blk	D2 ag	TRPML1 blocker	D2 PAM
CCCn1c(N)c(N2CCCCC2)c(=O)n(CC(=O)Nc2cccc(S(=O)(=O)N(C)C)c2)c1=O	0.0%	0.4	-3	-2.7	-1	-2
COc1ccc(C(=O)NC(C)c2ccccc2)cc1Br (stereo unspecified)	-1.8%	1.5	-1	0.3	22	-2
O=C(Nc1c(C(=O)c2ccccc2)oc2ccccc12)c1cc(-c2ccccc2O)n[nH]1	4.6%	0.1	-9	-2.2	4	-2
COc1cc(CCC(=O)NCc2ccc3c(c2)OCO3)cc(OC)c1OC	2.3%	-0.5	2	5.5	-6	-1
Cc1cc(C)cc(NC(=O)N2CCN(Cc3ccc4c(c3)OCO4)CC2)c1	0.3%	-0.8	-2	-2.8	17	-25
CCOC(=O)C(=O)c1c(C)cc2ccccn12	-0.5%	2.4	-1	-4.0	-16	-5
COc1ccc(NC(=O)CSc2nnc(-c3ccc(F)cc3)o2)cn1	1.6%	-0.1	-3	-5.1	14	-9
CC(C)(C)CC(C)(C)N=C1Nc2cc(Cl)c(Cl)cc2NC12C[C@H]1CCC(=O)N3CC[C@@H](C2)[C@@H]13 (stereo partly specified)	-1.1%	-1.1	-27	-1.2	26	-19
Clc1ccccc1-c1nnc2sc(-c3ccc4c(c3)OCO4)nn12	0.3%[38.3 µM]	4.7	-13	-2.1	2	-13
Cc1ccc(C(=O)Nc2nnc(C3CCCCC3)s2)o1	-0.7%[38.3 µM]	1.1	4	-1.8	-11	0
OCCCn1c(C(CO)Nc2nc(-c3ccc(Cl)cc3)cs2)nc2ccccc21 (stereo unspecified)	1.4%	-0.6	-14	-0.3	-4	-5
COCCOc1cc(-n2ccnc2SC)c(Cl)cc1Cl	3.1%	1.3	-4	-4.0	?	-26
COC(C(=O)N/N=C(\C)c1ccc(O)cc1)c1ccccc1 (stereo unspecified)	-3.7%	3.8	-5	1.1	2	0
CC1CN(C(=O)c2ccccc2Oc2ccccc2)CC(C)O1 (stereo unspecified)	-1.1%	-0.3	11	3.5	32	-6
CCOc1ccc(NS(=O)(=O)c2ccc3[nH]c4c(c3c2)CCCCC4)cc1	?	0.1	·	·	-11	·
CCNC(=O)CC1S/C(=N/N=C(\C)c2ccccc2)NC1=O (stereo unspecified)	-0.2%	0.3	3	-4.0	45	-2
COc1ccc(S(=O)(=O)N2CCN(Cc3ccccc3OC)CC2)cc1	0.1%	-0.6	-2	-0.1	-20	-20
COc1ccc(/C=C2\SC(N3CCc4ccccc4C3)=NC2=O)cc1OC	8.4%	0.0	-13	-0.8	-14	-25
CCOC(=O)C1=C(C)NC(C)=C(C(=O)OCC)C1C(=O)OCC(=O)NC(C)c1ccccc1 (stereo unspecified)	1.1%	-0.7	10	-5.3	-9	4
Cc1ccc(C(=O)n2cnnc2N)cc1	3.7%	0.2	6	-1.7	-2	-15
COc1ccccc1C1=NOC(COC(=O)c2ccc3ccccc3n2)C1 (stereo unspecified)	·	1.0	1	-2.8	-1	5
O=C(COC(=O)c1cc[n+]([O-])cc1)NCC12CC3CC(CC(C3)C1)C2	-0.5%	-0.3	9	-4.7	-9	-1
CC1CCN(C(=O)COC(=O)c2cc(=O)[nH]c3ccccc23)CC1	3.0%	0.3	-2	2.2	37	0
COc1ccc(C2NC(=O)N(C)C3=C2C(=O)N(c2ccccc2)C3)cc1 (stereo unspecified)	-3.9%	0.2	·	·	-14	·

Reformatted with values under each structure: part of the list above
Each structure is followed by: PINK1 expr mod | TRPML1 agonist | Six1-Eya2 blk | D2 ag | TRPML1 blocker | D2 PAM
- CCNC(=O)CC1S/C(=N/N=C(\C)c2ccccc2)NC1=O (stereo unspecified)
→ -0.2% | 0.3 | 3 | -4.0 | 45 | -2
- COc1ccc(S(=O)(=O)N2CCN(Cc3ccccc3OC)CC2)cc1
→ 0.1% | -0.6 | -2 | -0.1 | -20 | -20

New compounds follow.
mol	PINK1 expr mod	TRPML1 agonist	Six1-Eya2 blk	D2 ag	TRPML1 blocker	D2 PAM
CCc1ccccc1NS(=O)(=O)c1ccc2c(c1)CCN2C(=O)C1CC1	0.5%	-0.3	·	·	-5	·
CCOC(=O)C1(Cc2ccccc2C)CCCN(C(=O)c2ccccn2)C1 (stereo unspecified)	-1.2%	0.4	6	-0.7	4	0
Cc1cc(C)nc(N/N=C/c2cc3c(cc2[N+](=O)[O-])OCO3)n1	2.5%	0.5	1	1.1	0	-3
CC(=O)c1cccc(CN2CCc3ccc(NC(=O)C4CCCO4)cc3C2)c1 (stereo unspecified)	5.8%	0.0	3	-3.3	-3	-23
C[C@H](CO)N1C[C@H](C)[C@@H](CN(C)C(=O)Nc2ccc3c(c2)OCO3)Oc2ccc(NC(=O)Nc3ccc(C(F)(F)F)cc3)cc2C1=O	1.8%	-0.2	-15	2.5	-3	19
COc1ccc2c(c1)c1c(c(=O)n(Cc3ccccc3)c(=O)n1CC(=O)NCc1ccc(C)cc1)n2C	1.1%	-0.2	·	·	7	·
N/C(=N\c1nc(CSc2ccc(Cl)cc2)cc(=O)[nH]1)Nc1ccccc1C(F)(F)F	3.3%	0.3	5	-2.9	0	-1
Cc1cccc(N2C(=O)C=CC2=O)c1	2.4%	0.2	7	-6.4	-7	-16
CN(CC(=O)N1CCCC1)S(=O)(=O)c1ccc(Cl)cc1	·	-0.2	4	-0.5	-4	-13
O=c1sc2ccccc2c(N2CCN(c3ccccc3)CC2)c1[N+](=O)[O-]	1.8%	-1.0	1	0.1	8	-27
O=C(O)c1cccc(NC2=C(n3nnc4ccccc43)C(=O)c3ccccc3C2=O)c1	0.2%	-0.8	1	5.8	-11	8
Fc1ccccc1N1CCN(C(c2ccnc3ccccc23)c2nnnn2-c2ccc3c(c2)OCCO3)CC1 (stereo unspecified)	5.2%	-0.4	-22	·	·	·
O=C(N/N=C/c1cccnc1)c1ccccc1Br	-0.1%	-0.3	10	-4.5	-14	-8
COC(=O)c1scc(S(=O)(=O)C(C)(C)C)c1-n1cccc1	-0.4%	1.1	6	-4.8	3	-9
N#Cc1ccc(N/N=C/c2ccccc2)c([N+](=O)[O-])c1	7.9%	-0.1	-5	1.6	-4	-15
COc1cc(C)c(S(=O)(=O)n2ccc(C)n2)cc1C	0.0%	-0.8	5	-1.7	-5	-8
Cc1ccc(-c2nn(-c3cccc(F)c3)cc2CN2CCN(c3ccccn3)CC2)o1	1.0%	2.3	?	-4.2	6	-18
CC(C)NC(=O)c1ccc2c(c1)S(=O)(=O)c1ccccc1C2=O	-0.7%	-1.3	1	2.8	4	28
CCOc1ccc(/C=C2\SC(=S)N(N3C(=O)C4CC4C3=O)C2=O)cc1 (stereo unspecified)	0.7%	2.9	-4	-0.7	45	-7
O=C(Nc1ccccn1)C1CCN(S(=O)(=O)c2cccc3nonc23)CC1	-0.3%	1.0	-2	-1.1	24	-10
COc1ccc(NC(=O)c2c(NC(=O)c3ccc(Br)cc3)sc3c2CCCC3)cc1	3.2%	0.0	·	·	3	·
COc1cccc(N2C(=O)C3CCCN3C2c2cccs2)c1 (stereo unspecified)	2.9%	-0.2	5	-2.2	-3	-6
COc1ccc(C(=O)N/C(=C\c2ccco2)C(=O)NCCN2CCOCC2)cc1	2.7%	0.2	2	-2.9	-3	-9
Cc1ccc(CNC(=O)c2ccc3c(c2)CCN3S(=O)(=O)c2ccc(Br)cc2)cc1	11%	0.8	·	·	12	·
COc1ccc(S(=O)(=O)N(C)CC(=O)N2CCN(c3ccccc3)CC2)cc1	-0.7%	0.2	16	-1.6	1	-6
CC(C)C(=O)Nc1ccc(C(=O)CSc2nnc(C3CC3)n2C2CC2)cc1	2.1%	1.3	8	3.8	41	-6
Cc1nnc(SCC(=O)NNC(=O)c2ccc(Br)cc2)n1C	-2.6%	0.2	4	-0.3	3	4
COCCn1c(-c2ccc(Cl)cc2)nc2oc3cc(OC)ccc3c(=O)c2c1=O	1.0%	0.8	-4	3.9	-5	8
NS(=O)(=O)c1ccc(NC(=O)c2ccc3nccnc3c2)cc1	0.1%	0.3	-2	-1.4	5	-3
Cc1ccc2c(c1)NC(=O)C(CC(=O)NCCN(CC(C)C)CC(C)C)O2 (stereo unspecified)	0.1%	0.5	6	-8.4	-2	-1
CCc1nc2c(OCCC3CCCCC3)cccn2c1N(C)C(=O)c1cccs1	5.0%	14	-16	-3.2	·	-11
COc1ccc(-c2n[nH]c(C)c2-c2cscn2)c(O)c1	1.0%	·	1	-2.2	·	-7
O=C(Nc1ccccc1)NN1CC(=O)N(c2ccc(Cl)cc2)CC1=O	11%	0.4	11	-1.1	-15	-13
O=C(NCC(c1cccnc1)N1CCc2ccccc21)c1cccc(F)c1 (stereo unspecified)	4.7%	2.5	·	·	-7	·
Cc1cccc(C)c1NC(=O)CNC(=O)COC(=O)c1ccc(Cl)s1	1.6%	3.5	2	3.6	18	-2
CC(C)C[C@@H]1CN=C(N)N1C[C@@H]1CCCN1C[C@@H](C(C)C)N1C[C@@H](Cc2ccccc2)N(CCCC2CCCC2)C1=N	0.6%	-0.3	-1	-3.8	2	·
Cc1cccc(C)c1NC(=O)CCCSc1nnc(-c2ccco2)n1-c1ccccc1	-1.2%	-0.7	-3	-1.5	-9	-17
COc1ccc(OCc2ccc(-c3nc(C#N)c(N4CCN(c5ccccc5)CC4)o3)o2)cc1	0.4%	-0.3	·	·	-2	·
CC(C)=C(NC(=O)c1ccccc1)C(=O)Nc1cccc(C)c1	4.2%	0.2	-10	-7.5	16	-10
COc1cccc(C2=CC(=O)CC(C)(C)C2=O)c1	-0.3%	-0.4	-2	-2.4	5	0
C=CCn1nc(C(=O)OCC)cc1-c1sc(NC(=O)c2ccccc2)nc1C	-1.4%	4.5	-8	4.0	22	1
Cc1ccc(C2CC(=O)c3cnc(NC(=O)c4ccco4)nc3C2)cc1 (stereo unspecified)	1.0%	-0.4	-5	-2.6	-2	7

4 of these compounds in a different format.
SMILES: CC(C)=C(NC(=O)c1ccccc1)C(=O)Nc1cccc(C)c1
  PINK1 expr mod: 4.2%; TRPML1 agonist: 0.2; Six1-Eya2 blk: -10; D2 ag: -7.5; TRPML1 blocker: 16; D2 PAM: -10

SMILES: COc1ccc(OCc2ccc(-c3nc(C#N)c(N4CCN(c5ccccc5)CC4)o3)o2)cc1
  PINK1 expr mod: 0.4%; TRPML1 agonist: -0.3; Six1-Eya2 blk: ·; D2 ag: ·; TRPML1 blocker: -2; D2 PAM: ·

SMILES: Cc1cccc(C)c1NC(=O)CCCSc1nnc(-c2ccco2)n1-c1ccccc1
  PINK1 expr mod: -1.2%; TRPML1 agonist: -0.7; Six1-Eya2 blk: -3; D2 ag: -1.5; TRPML1 blocker: -9; D2 PAM: -17

SMILES: C=CCn1nc(C(=O)OCC)cc1-c1sc(NC(=O)c2ccccc2)nc1C
  PINK1 expr mod: -1.4%; TRPML1 agonist: 4.5; Six1-Eya2 blk: -8; D2 ag: 4.0; TRPML1 blocker: 22; D2 PAM: 1

Screening data deposited in PubChem by National Center for Advancing Translational Sciences (NCATS).
